From PubChem
Cruzain inh Det – inhibitors of Trypanosoma cruzi cruzain with detergent; purified cruzain, Z-FR-AMC fluorescence, 0.01% Triton; Potency, µM, for inactives: max response, negative = inhibition, hits mostly inhibitors; hit rate 0.43% among 200,000; AID 1478;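 further: plate controls were neutral wells for no effect and buffer without enzyme for full effect; nearly all actives have a fitted effect of over 40% in size; top concentration of the series not given in the record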
Target sequence (P25779 123-467 limits assumed): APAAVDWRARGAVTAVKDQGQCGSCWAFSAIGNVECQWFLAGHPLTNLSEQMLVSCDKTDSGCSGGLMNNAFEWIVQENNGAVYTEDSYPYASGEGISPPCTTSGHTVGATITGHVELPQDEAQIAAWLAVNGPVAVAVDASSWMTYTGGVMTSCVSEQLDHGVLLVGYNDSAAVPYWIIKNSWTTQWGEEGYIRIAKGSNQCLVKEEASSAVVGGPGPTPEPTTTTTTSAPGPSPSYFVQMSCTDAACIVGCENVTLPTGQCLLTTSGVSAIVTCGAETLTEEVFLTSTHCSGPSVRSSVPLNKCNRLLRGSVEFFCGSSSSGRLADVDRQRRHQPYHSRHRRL
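Cysteine protease activity tested under reducing, mildly acidic conditions (100 mM sodium acetate pH 5.5, 5 mM DTT) plus 0.01% Triton X-100. Cruzain 1.5 nM; substrate Z-FR-AMC 2 uM; 15 min compound preincubation at room temperature.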
Lassa entry inh – inhibitors of Lassa virus binding or cell entry | Lassa virus pseudotype entry inhibition, cell reporter; control for the full effect not named in the record | Potency, µM (titrated, usually from 37.9 µM), inactives show at the top dose activity change, negative = inhibition, most hits filed as inhibitors | hit rate 1.2% among 300,000 | AID 540256; active means well fitted inhibition curve with a large enough effect; inconclusive means small, poorly fitted or top-dose-only effect, or effect the other way; inactive means flat fitted curve, though single readings scatter; tested in HEK293 cells; further: on the % scale 0 is the no-effect control and ±100 the full control effect; nearly all actives have a fitted effect of over 50% in size; luciferase read-out
Cruzain noTriton – cruzain (T. cruzi) inhibition without detergent. P25779. purified cruzain, Z-FR-AMC fluorescence, no detergent. Potency, µM, for the others: max response, negative = inhibition, hits mostly inhibitors. hit rate 2.3% among 200,000. AID 1476;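 further: plate controls were enzyme without inhibitor for no effect and buffer without enzyme for full effect; nearly all actives have a fitted effect of over 40% in size; top concentration of the series not given in the record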
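Purified cruzain at 1.5 nM, pre-incubated 15 min with compound at room temperature in 100 mM sodium acetate pH 5.5, 5 mM DTT, 0.00005% Triton X-100. Reaction started with 2 uM Z-FR-AMC; AMC fluorescence increase over 60 s gives rate.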
NS1 function inh – inhibitors of influenza NS1 protein function | S. cerevisiae slowed by influenza A NS1, growth recovery by OD600 | Potency, µM (highest dose often 46.1 µM), without a hit: at the highest dose activity, positive = more growth | hit rate 0.4% among 270,000 | AID 2326; active means well fitted rising curve with a large enough effect; inconclusive means small, poorly fitted or top-dose-only effect; inactive means no such curve, though single readings can be large or run the other way; further: nearly all actives have a fitted effect of over 50% in size
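S. cerevisiae expressing influenza A NS1, grown in glucose, washed, then diluted 1:100 into pH 6.0 -URA galactose medium with 23 nl compound. Growth recovery read as OD600; NS1-free strain serves as control.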
RE007 growth inh – less growth of the S. pombe RE007 Vpr strain. S. pombe RE007 Vpr strain, BacTiter-Glo ATP luminescence, 24 h; control for the full effect not named in the record. Potency, µM (doses to about 92.2 µM), inactives show at the highest dose activity change, negative = less growth. hit rate 0.21% among 360,000. AID 651644; active = well fitted falling curve with a large enough effect; inconclusive = small, poorly fitted or top-dose-only effect; inactive = no such curve, though single readings can be large or run the other way;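 further: on the % scale 0 is the no-effect control and ±100 the full control effect; nearly all actives have a fitted effect of over 50% in size; the assay follows cell death caused by Vpr and the record does not say whether a fall means rescue or toxicity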
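Fission yeast RE007 carrying one integrated HIV-1 vpr copy, seeded at OD 0.01 in PMG+AL medium with 23 nL pinned compound. Grown 24 h at 30 degrees; viability read by BacTiter-Glo luminescence after 5 min.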
MARV entry inh – inhibitors of Marburg virus binding or cell entry. hit rate 1.8% among 300,000. AID 540276. Potency, µM (titrated, usually from 37.8 µM), inactives show at the highest dose activity change, negative = inhibition, hits mostly inhibitors. Marburg virus pseudotyped entry inhibition, cell reporter; control for the full effect not named in the record; about a third of the inactives were read at about 46 µM; active = well fitted inhibition curve with a large enough effect; inconclusive = small, poorly fitted or top-dose-only effect, or effect the other way; inactive = flat fitted curve, though single readings scatter; tested in HEK293 cells; about a fifth of its hits are not listed in these tables; further: on the % scale 0 is the no-effect control and ±100 the full control effect; luciferase read-out
SARS PLpro yeast – SARS-CoV PLP inhibition in yeast | S. cerevisiae expressing SARS-CoV PLpro, growth rescue; control for the full effect not named in the record | Potency, µM (doses to about 32.9 µM), for the others: at the top dose activity, positive = growth rescue | hit rate 0.19% among 330,000; active means well fitted rising curve with a large enough effect; inconclusive means small, poorly fitted or top-dose-only effect; inactive means no such curve, though single readings can be large or run the other way; further: 0% is about no effect; nearly all actives have a fitted effect of over 55% in size; growth read by luminescence after 48 h
StopGo reporter – lowers the luciferase signal of an FMDV 2A StopGo reporter; human cells with a luciferase reporter of 2A StopGo recoding; control for the full effect not named in the record; Potency, µM (titrated, usually from 57.9 µM), for inactives: top-dose signal change, negative = less light; hit rate 1.2% among 410,000; active = well fitted falling curve with a large enough effect; inconclusive = small, poorly fitted or top-dose-only effect; inactive = no such curve, though single readings can be large or run the other way; tested in HEK293T cells; further: on the % scale 0 is the no-effect control and ±100 the full control effect; nearly all actives have a fitted effect of over 45% in size; luciferase light after 4 h
* = called active by the depositor; & = joins results of further samples; [ ] = another dose, or the depositor's remark. Unless noted, the call rests on the fitted dose curve; in most records, active means well fitted curve in the direction sought with a large enough effect; inconclusive means small, poorly fitted or top-dose-only effect, or another doubt; inactive means no such curve, though single readings can be large; an effect the other way counts as inactive or inconclusive. Potency means the concentration at half of the fitted maximal effect.

Screening CCN(CC)C(=O)c1sc(NC(=O)c2ccc(C)c([N+](=O)[O-])c2)c(C#N)c1C returned Cruzain inh Det 7.8%, Lassa entry inh inconclusive, Cruzain noTriton inconclusive, NS1 function inh -10%, RE007 growth inh 3%, MARV entry inh 0%[46.1 µM], SARS PLpro yeast 7% and StopGo reporter -26%.
Screening CC(=O)SCC(C)C(=O)NCc1ccccc1 (stereo not given) returned Cruzain inh Det 1.9%, Lassa entry inh 4%, Cruzain noTriton -1%, NS1 function inh 1%, RE007 growth inh -1%, MARV entry inh 18% and SARS PLpro yeast 0%.
For O=C(NNC(=O)C12CC3CC(CC(C3)C1)C2)c1ccncc1 the results were Lassa entry inh 29%, NS1 function inh 3%, RE007 growth inh -7%, MARV entry inh -1%[46.1 µM], SARS PLpro yeast 2% and StopGo reporter 22%.
`O=[N+]([O-])c1cccc(/C=N\N=C2c3ccccc3-c3ccccc32)c1O` gave Cruzain inh Det -4.7%, Lassa entry inh 9%, Cruzain noTriton inconclusive, NS1 function inh 4%, RE007 growth inh inconclusive, MARV entry inh -2%, SARS PLpro yeast -3% and StopGo reporter inconclusive.
`Cc1[nH]c2ccccc2c1C(=O)C(=O)N1CCN(c2cccc(Cl)c2)CC1` gave NS1 function inh -87%, RE007 growth inh -12%, SARS PLpro yeast -7% and StopGo reporter -11%.
`CCOC(=O)C1(Cc2ccccc2)CCN(C2Cc3ccccc3C2)CC1` gave Lassa entry inh 2%[46.1 µM], NS1 function inh -3%, RE007 growth inh -7%, MARV entry inh inconclusive, SARS PLpro yeast 0% and StopGo reporter inconclusive.
`Cc1noc(C)c1S(=O)(=O)N1CCC(C(=O)Nc2ccc(Br)cc2)CC1` gave Cruzain inh Det 0.1%, Lassa entry inh inconclusive, Cruzain noTriton inconclusive, NS1 function inh 4%, RE007 growth inh 10%, MARV entry inh 6%&6%[46.1 µM], SARS PLpro yeast -5% and StopGo reporter -21%&-21%.
COc1ccc(OC)c(C2/C(=C(/O)c3cnn(-c4ccccc4)c3C)C(=O)C(=O)N2CCN(C)C)c1 (stereo not given) was read as Cruzain inh Det -1.0%, Lassa entry inh 1%, Cruzain noTriton -2%, NS1 function inh -15%, RE007 growth inh -9%, MARV entry inh 7%[46.1 µM], SARS PLpro yeast -5% and StopGo reporter 11%.
`Cc1ccc(NC(=O)CN(C)Cc2cccs2)cc1Cl` gave Lassa entry inh 6%, NS1 function inh -16%, RE007 growth inh -17%, MARV entry inh 2%[46.1 µM], SARS PLpro yeast -4% and StopGo reporter 27%.
Screening N=c1c(S(=O)(=O)c2ccc(Cl)cc2)cc2c(=O)n3ccccc3nc2n1C1CCCC1 returned Lassa entry inh -20%[46.1 µM], NS1 function inh 3%, RE007 growth inh -15%, MARV entry inh 2%[46.1 µM], SARS PLpro yeast inconclusive and StopGo reporter -20%.
For C=CCn1c(SCC(=O)N2CCN(c3ccc(F)cc3)CC2)nnc1-c1cccs1 the results were Cruzain inh Det 1.9%, Cruzain noTriton 1%, NS1 function inh -7%, RE007 growth inh -13%, SARS PLpro yeast 1% and StopGo reporter inconclusive.
Screening C=CCNS(=O)(=O)c1cccc(C(C)=O)c1 returned Cruzain inh Det 2.0%, Lassa entry inh inconclusive, Cruzain noTriton -11%, NS1 function inh 10%, RE007 growth inh 1%, MARV entry inh -2%, SARS PLpro yeast 16% and StopGo reporter 23%.
Screening CCCCCc1cc(=O)oc2c(C(CCN3CCN(c4ccccc4)CC3)c3ccc(N(C)C)cc3)c(OC)cc(OC)c12 (stereo not given) returned NS1 function inh 8%, RE007 growth inh -9%, SARS PLpro yeast 1% and StopGo reporter -12%.
`CCOC(=O)c1ccc(N2C(=O)C(CC(N)=O)N(NC(=O)c3cccc(F)c3)C2=S)cc1` (stereo not given) gave NS1 function inh -6%, RE007 growth inh 14%, MARV entry inh 2%, SARS PLpro yeast 3% and StopGo reporter -15%.
Screening CC(=O)c1cn(CCOc2cc(C)ccc2C)c2ccccc12 returned Lassa entry inh -17%[46.1 µM], NS1 function inh -6%, RE007 growth inh 4%, MARV entry inh 1.6µM*, SARS PLpro yeast 6% and StopGo reporter inconclusive.
CC(C)CCN(C(=O)c1csnn1)C(C(=O)NC1CCCCC1)c1ccc(F)cc1 (stereo not given) was read as Lassa entry inh inconclusive, NS1 function inh 2%, RE007 growth inh 11%, MARV entry inh inconclusive, SARS PLpro yeast -5% and StopGo reporter 11%.
`C=CCC(NCc1ccco1)c1ccc(OC)cc1OC` (stereo not given) gave Cruzain inh Det 0.9%, Cruzain noTriton -8%, NS1 function inh 6%, MARV entry inh 1% and SARS PLpro yeast 5%.
CCCCOC(=O)Oc1ccc2c(=O)c(Oc3cccc(C)c3)coc2c1 was read as Cruzain inh Det -4.3%, Lassa entry inh -7%, Cruzain noTriton -2%, NS1 function inh -6%, RE007 growth inh -3%, MARV entry inh inconclusive, SARS PLpro yeast -37% and StopGo reporter 23%.
Screening CC(=O)Nc1ccc(N(CC(=O)NC2CCCCC2)C(=O)Cn2nnc(-c3ccccc3)n2)cc1 returned Lassa entry inh 4%[46.1 µM], NS1 function inh 14%, RE007 growth inh 1%, MARV entry inh -9%[46.1 µM], SARS PLpro yeast 2% and StopGo reporter 10%.
`Fc1cccc(-n2ncc3c2ncn2nc(-c4ccccc4Cl)nc32)c1` gave Cruzain inh Det -1.5%, Lassa entry inh 1%[46.1 µM], Cruzain noTriton -12%, MARV entry inh 0%[46.1 µM] and StopGo reporter 30%.
COc1ccc(C)cc1NC(=O)C(Cc1ccccc1)NS(=O)(=O)c1cccs1 (stereo not given) was read as Cruzain inh Det -4.5%, Lassa entry inh -2%[46.1 µM], Cruzain noTriton -29% and StopGo reporter 26%.
`COc1ccc(C2CC(=O)C3=C(C2)Nc2ncnn2C3c2ccccc2C)cc1` (stereo not given) gave Cruzain inh Det -7.2%, Lassa entry inh 8%, Cruzain noTriton -13%, NS1 function inh -52%, RE007 growth inh 4%, MARV entry inh -3%, SARS PLpro yeast 8% and StopGo reporter 26%.
For CN(C)c1ccc(CNC(=O)C2CCC(CNc3c(N4CCCCC4)c(=O)c3=O)CC2)cc1 (stereo not given) the results were Lassa entry inh 12%, NS1 function inh -10%, RE007 growth inh 2%, MARV entry inh -2%[46.1 µM], SARS PLpro yeast 1% and StopGo reporter 23%.
CCN(CC)CCCN(Cc1cc2cc3c(cc2[nH]c1=O)OCCO3)C(=O)Nc1ccc(F)cc1 was read as Cruzain inh Det -13%, Lassa entry inh 14%, Cruzain noTriton -22%, NS1 function inh 2%, RE007 growth inh -17%, MARV entry inh -20%&-20%, SARS PLpro yeast 9% and StopGo reporter -4%.
Cc1ccc2onc(CC(=O)N3CCN(c4cc(Cl)ccc4C)CC3)c2c1 was read as Cruzain inh Det -3.7%, Lassa entry inh 6%[46.1 µM], Cruzain noTriton -8% and StopGo reporter -20%.
c1ccc(CN=C2NN=C(c3ccccc3)CS2)cc1 was read as Lassa entry inh -21%, RE007 growth inh -10%, MARV entry inh inconclusive, SARS PLpro yeast 2% and StopGo reporter 16%.
Screening Cc1ccc(S(=O)(=O)N(C)CC(=O)O/N=C(\N)c2cccnc2)cc1 returned Lassa entry inh 0%, RE007 growth inh 0%, MARV entry inh 20% and StopGo reporter -11%.
Screening CCCN(CCC)C(=O)Cn1c(=O)n(CCCCCC(=O)NCc2ccccc2Cl)c(=O)c2sccc21 returned Cruzain inh Det -1.1%, Lassa entry inh 13%[46.1 µM], Cruzain noTriton -2%, MARV entry inh -2%[46.1 µM] and StopGo reporter -16%.
S=C(NCCC(c1ccccc1)c1ccccc1)Nc1ccccc1Cl was read as Cruzain inh Det 1.3%, Lassa entry inh -23%, Cruzain noTriton -2%, NS1 function inh 0%, RE007 growth inh 0%, MARV entry inh -17%, SARS PLpro yeast 18% and StopGo reporter 21%.
Screening COc1cccc(NC(=O)CN(C)C(=O)C2=COCCO2)c1 returned Lassa entry inh 20%, RE007 growth inh -12%, MARV entry inh inconclusive, SARS PLpro yeast -4% and StopGo reporter -8%.
`COc1ccccc1N1C(=O)NC(=O)/C(=C/c2ccc([N+](=O)[O-])s2)C1=O` gave Lassa entry inh -2%, NS1 function inh 0%, RE007 growth inh -28%, MARV entry inh -27%, SARS PLpro yeast -1% and StopGo reporter inconclusive.
CCSc1nc2sccc2c(=O)n1-c1ccccc1 was read as Lassa entry inh inconclusive, NS1 function inh -23%, RE007 growth inh -6%, MARV entry inh -15%[46.1 µM], SARS PLpro yeast 1% and StopGo reporter 21%.
Cn1c(=O)[nH]c(=O)c2c1nc(N1CCCCCC1)n2CC(N)=O was read as Cruzain inh Det -3.4%, Lassa entry inh 14%, Cruzain noTriton -5%, NS1 function inh 5%, RE007 growth inh -1%, MARV entry inh 7%, SARS PLpro yeast 5% and StopGo reporter -13%.
`COc1ccnc(Oc2cccc(C(F)(F)F)c2)c1C(=O)N/C=N/OCc1ccccc1F` gave Lassa entry inh inconclusive, NS1 function inh -4%, RE007 growth inh 6%, MARV entry inh inconclusive, SARS PLpro yeast 0% and StopGo reporter inconclusive.
COc1ccc(CC(=O)NCC(=O)N/N=C/c2ccco2)cc1 was read as Cruzain inh Det -3.6%, Lassa entry inh 1%, Cruzain noTriton -2%, NS1 function inh -1%, RE007 growth inh 10%, MARV entry inh 21%, SARS PLpro yeast -20% and StopGo reporter -7%.
For COC(=O)C1C(OC)=CC(=O)C2CCCCC21 (stereo not given) the results were Lassa entry inh 7%, RE007 growth inh 31%, MARV entry inh -5% and StopGo reporter -2%.
Cc1ccc2c(C)c3ccc4ccccc4c3c[n+]2c1 was read as Lassa entry inh -27%, RE007 growth inh inconclusive, MARV entry inh inconclusive and StopGo reporter inconclusive.
CCOC(=O)n1ccc(C(=O)Nc2ccccc2F)n1 was read as Cruzain inh Det 3.3%, Lassa entry inh inconclusive, Cruzain noTriton -4%, NS1 function inh -4%, RE007 growth inh -3%, MARV entry inh inconclusive, SARS PLpro yeast 0% and StopGo reporter 4%.
For Cn1nc2c3cc(F)ccc3n(Cc3ccc(F)cc3)cc-2c1=O the results were Lassa entry inh 1%[46.1 µM], NS1 function inh 1%, RE007 growth inh -16%, MARV entry inh 4%[46.1 µM], SARS PLpro yeast -2% and StopGo reporter -3%.
